# Assay outcomes: PubChem, Center for Chemical Genomics, University of Michigan
# TAR Tat displ: TAR RNA-Tat peptide displacers, HIV-1, primary screen, biochemical, FRET, FAM/TAMRA-labeled Tat; HIV-1 TAR RNA, Tat peptide displacement FRET; active compounds read high; actives 0.6% (n = 100,000); z-score (concentration not given with the values);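 note: score is relative to mean and SD of negative controls; some compounds called inactive have numbers as strong as hits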
# CDC25B CDK2 inh: primary biochemical HTRF screen for blockers of M-phase inducer phosphatase 2 binding to CDK2/cyclin A. P30305+P24941. HTRF CDC25B-CDK2/CyclinA binding, anti-His/anti-Flag; active compounds read high. z-score (no concentration beside the values). actives 0.72% (n = 94,000);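 note: score is relative to mean and SD of negative controls; strong numbers were not always called active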
# * marks the source's active call; other numbers are inactive results; x = no result given; & = joins results of further samples.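 Rule for the calls: active = z-score from 3 up in half or more of its runs; inactive = the rest.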
# Each structure is followed by: TAR Tat displ, CDC25B CDK2 inh
> C=CCc1ccc(OCCn2c(CN3CCCC3)nc3ccccc32)c(OC)c1
    0.01, 0.91
> CCSC1=C(C#N)C(=O)NC(c2ccc(OC)cc2OC)S1 (configuration not stated)
    -0.63, -1
> COc1ccc(CCNC(=O)c2cc(-c3ccco3)on2)cc1OC
    x, 1.2
> O=C(Nc1ccc(F)c(Cl)c1)N1CCSc2ccccc21
    0.56, x
> CCCOc1ccc(C(Nc2ccccn2)c2ccc3cccnc3c2O)cc1 (configuration not stated)
    -0.68, -0.98
> O=C(CCc1nc2sc3c(c2c(=O)[nH]1)CCCCC3)Nc1cccc(Cl)c1
    1.2, x
> Cc1ccc(OCC(O)Cn2cnc3ccccc32)cc1C (configuration not stated)
    1.4, -1.2
> O=C(c1c[nH]c2ccc(Cl)cc2c1=O)N1CCCC1
    -1.1, -1.9
> Cc1ccccc1OCc1nnc(SCc2cc(=O)n3c(C)csc3n2)n1C
    1.2, x
> CC(=O)N1CCc2cc(-c3ccc(C(=O)N4CCN(C(=O)c5ccco5)CC4)cc3)ccc21
    0.49, x

# (cont.)
# Each structure is followed by: TAR Tat displ, CDC25B CDK2 inh
> CC1Cc2ccccc2N1C(=O)CCS(=O)(=O)c1cc2c(cc1Cl)NC(=O)CO2 (configuration not stated)
    2.5, x
> COc1ncnc2c1sc1ncccc12
    x, -1.1
> Cc1cc2c(cc1NC(=O)c1cccs1)n(C)c(=O)n2C
    0.81, x
> C[C@H]1O[C@@H](O[C@H]2[C@@H](O)C[C@H](O[C@H]3[C@@H](O)C[C@H](O[C@H]4CC[C@]5(C)C6C[C@@H](O)[C@]7(C)[C@@H](C8=CC(=O)OC8)CC[C@]7(O)C6CC[C@@H]5C4)O[C@@H]3C)O[C@@H]2C)C[C@H](O)[C@@H]1O (some centres not stated)
    0.61, x
> O=C(CSc1ccc([N+](=O)[O-])cn1)Nc1ccc(F)cc1F
    x, -1.6
> COCCCNC(=O)/C(C#N)=C/N(C)C
    x, -0.29
> COc1ccc(-c2cc(=O)c3cc(OC(=O)c4cccnc4)ccc3o2)cc1
    -1.1, 0.19
> O=c1cc(CSCc2ccco2)[nH]c2ccc(F)cc12
    1.7, x
> Cn1c(CCCNC(=O)c2ccco2)nc2ccccc21
    0.87, -2
> Cn1c(Cn2c3ccccc3c3ccccc32)nnc1Sc1ncccc1[N+](=O)[O-]
    x, 1.2

# The list continues.
# Each structure is followed by: TAR Tat displ, CDC25B CDK2 inh
> Cc1c(C)c(C)c(CSCC(=O)NNC(=S)NC2CC3C=CC2C3)c(C)c1C (configuration not stated)
    x, -1.1
> Cc1c(C(N)=O)nnn1-c1ccc(Br)cc1
    0.42, -0.12
> CCN(CCCNS(=O)(=O)c1ccc2[nH]c(=O)ccc2c1)c1ccccc1
    1.9, x
> Cc1ncc([N+](=O)[O-])n1CC(=O)O
    0.17, 2
> CC(=O)Nc1ccc(N2C(=O)C3C4CC(=O)C(c5ccccc54)C3C2=O)cc1 (configuration not stated)
    -0.36, 0.55
> CC1=Cc2n[nH]c(C)c2C(c2ccccc2)C1 (configuration not stated)
    x, -2.4
> Nc1c2c(nc3c1CCC3)CCCC2
    0.55, x
> CSc1nc2ccc(NC(=O)NC(=O)c3ccccc3[N+](=O)[O-])cc2s1
    x, -0.51
> Cn1nc(Br)nc1Sc1ccccc1N
    1.7, x
> O=C(CN1C(=O)CSc2cccn2-c2ccccc21)N1CCN(c2ccccn2)CC1
    0.08, x

# Structures listed so far containing a cyano group, in the order listed:
# Each structure is followed by: TAR Tat displ, CDC25B CDK2 inh
> CCSC1=C(C#N)C(=O)NC(c2ccc(OC)cc2OC)S1 (configuration not stated)
    -0.63, -1
> COCCCNC(=O)/C(C#N)=C/N(C)C
    x, -0.29

# The list goes on.
# Each structure is followed by: TAR Tat displ, CDC25B CDK2 inh
> Cc1cc(NC(=O)N2CCN3CCCCC3C2)ccc1Br (configuration not stated)
    1.6, x
> Brc1ccc(-c2cn3ccc4ccccc4c3n2)cc1
    x, 0.53
> CCS(=O)(=O)n1nc(-c2cccnc2)nc1NCc1ccc(F)cc1
    1.2, -1.7
> COC(=O)c1cc(S(=O)(=O)NCC2CCCO2)c[nH]1 (configuration not stated)
    -0.18, x
> O=C(CSc1nnc2c3ccccc3nc(-c3ccccc3)n12)NCc1ccco1
    0.63, x
> COCCN(Cc1ccco1)C(=O)C(=O)Nc1ccc2nc3n(c(=O)c2c1)CCCCC3
    0.31, -1.6
> O=C(Nc1ccc(Br)cc1)N1CCCC(CN2CCc3ccccc3C2)C1 (configuration not stated)
    -0.53, x
> CCN(CC)CCCNc1ncnc2sc3c(c12)CC(C)CC3 (configuration not stated)
    x, -0.06
> COc1cccc2cc(C(=O)C[n+]3ccccc3)c(=O)oc12
    x, -1.4
> Cc1nnc(Nc2ccc(F)cc2)c2ccccc12
    x, -0.18

# Next structures.
# Each structure is followed by: TAR Tat displ, CDC25B CDK2 inh
> Cc1cc(NC(=O)CCCn2nnc3cc(S(=O)(=O)N(C)C)ccc32)no1
    -2.3, x
> CCCNC(=O)N1[C@H](c2cccs2)[C@@H](C)C(=O)[C@@H](C)[C@@H]1c1cccs1
    0.98, -0.94
> Cc1ccc2nc(C)c(Cc3nnc(SCCOc4ccccc4)n3C)c(=O)n2c1
    0.16, -0.92
> Cc1nnc2sc(SCc3ccccc3)nn2c1=O
    0.51, x
> CC(C)(C)c1nnc(Nc2cccc(Cl)c2)[nH]c1=O
    x, 0.41
> CC1(C)CC(=O)C2=C(C1)Nc1ccccc1N(Cc1ccc(F)cc1)C2c1ccco1 (configuration not stated)
    -1.5, x
> CCCNC(=O)c1cc2n(n1)CC(C)(C(=O)NCCC(C)C)N(C)C2=O (configuration not stated)
    1.2, x
> CC(NCCN1CCNCC1)c1cc(C(C)(C)C)cc2c1CCC2(C)C (configuration not stated)
    x, -2.3
> CCn1c(=O)c(C(=O)O)nc2ccccc21
    0.52, -2
> COc1ccccc1N(C)c1c(-c2ccccc2)c(=O)c1=O
    3.1, x

# (further entries)
# Each structure is followed by: TAR Tat displ, CDC25B CDK2 inh
> CCCN(CCC)CCCNc1ncnc2onc(-c3ccc(F)cc3)c12
    0.19, x
> Cn1c(SCC(=O)Nc2ccc3c(c2)OCO3)ncc(C(=O)Nc2ccc(Cl)cc2)c1=O
    1.3, x
> CCCCN1CNC(=S)N(c2ccccc2)C1
    x, 1.4
> CN1CCc2nc3sc(C(=O)Nc4ccc(Cl)cc4)c(N)c3cc2C1
    0.45, -0.56
> O=C(NCc1ccccn1)c1ccc(CS(=O)c2ccccc2Cl)o1 (configuration not stated)
    -0.75, x
> CCOc1ccc2nc(NC(=O)CSc3nc4nc(C)ccc4o3)sc2c1
    2.4, x
> COc1ccc2cc3[n+](cc2c1OC)CCc1cc2c(cc1-3)OCO2
    2.6&2.6, x
> CN1C(=O)c2cc(NC(=O)c3cnccn3)ccc2N2CCN=C12
    1.5, x
> CCN1Cc2cccc(CNc3ccc(C)c(Cl)c3)c2C1
    1.9, -0.98
> O=C(O)CCC(=O)Nc1cc(NC(=O)CCC(=O)O)cc(C(=O)O)c1
    x, 1.6

# A different layout for some results above:
mol	TAR Tat displ	CDC25B CDK2 inh
CCCCN1CNC(=S)N(c2ccccc2)C1	x	1.4
CN1CCc2nc3sc(C(=O)Nc4ccc(Cl)cc4)c(N)c3cc2C1	0.45	-0.56
O=C(NCc1ccccn1)c1ccc(CS(=O)c2ccccc2Cl)o1 (configuration not stated)	-0.75	x
CCOc1ccc2nc(NC(=O)CSc3nc4nc(C)ccc4o3)sc2c1	2.4	x
COc1ccc2cc3[n+](cc2c1OC)CCc1cc2c(cc1-3)OCO2	2.6&2.6	x

# The listing continues:
# Each structure is followed by: TAR Tat displ, CDC25B CDK2 inh
> Cc1ccc(-c2nc(-c3cc4c([nH]c3=O)CC(C)(C)CC4=O)sc2C)cc1
    -1.8, -0.56
> CCN1C(=O)N(CC)C2C1N(C(C)=O)C(=O)N2C(C)=O (configuration not stated)
    2.4, -1.2
> COc1ccc(-n2nnc(-c3nc(-c4ccc5c(c4)OCO5)no3)c2C)cc1
    -0.34, x
> O=C(NC1CC1)C1CCN(c2ncnc3c2nc2n3CCCCC2)CC1
    0.63, x
> CCCCSC1=C(C#N)C(=O)NC(C)S1 (configuration not stated)
    -0.19, -0.6
> O=C(Nc1ccc(Br)cc1F)Nc1csc2c1CCCC2
    -0.36, -0.65
> COc1ccc(OC)c(C2=NOC(C(=O)NCc3cccs3)C2)c1 (configuration not stated)
    0.28, -0.87
> COc1cc(NC(=O)c2onc(C)c2Cl)c(OC)cc1Cl
    1.4, -0.04
> CCc1ccc(S(=O)(=O)N(CCS(=O)(=O)N2CCNCC2)Cc2ccccc2Cl)cc1
    1.1, x
> Cc1cc(C)c2c3c(sc2n1)C(=O)N(c1ccc(F)cc1)C(C)N3 (configuration not stated)
    1.9, -1

# Later entries
# Each structure is followed by: TAR Tat displ, CDC25B CDK2 inh
> Cc1ccc(Cl)cc1N1CCN(c2cnc3ccccc3n2)CC1
    0.66, x
> CC1SC2(OC1=O)C1CC3CC(C1)CC2C3 (configuration not stated)
    x, -1.2
> COc1ccc(-c2nc(-c3ccccn3)no2)cc1OC
    1.2, 1
> Cc1cccc2[nH]c(SC(C)c3ccccc3)nc12 (configuration not stated)
    -0.83, 0.53
> c1ccc(-c2csc(Nc3ncccn3)n2)cc1
    0.43, -1.2
> CCC(C)NC(=O)C(=O)Nc1c2c(nn1-c1ccc(Cl)cc1)CSC2 (configuration not stated)
    1.7, x
> COc1cccc(-c2noc(C(C)Oc3ccc(C)cc3)n2)c1 (configuration not stated)
    0.36, -0.1
> CCS(=O)(=O)N1CCCc2ccc(NS(=O)(=O)Cc3ccccc3)cc21
    -0.67, x
> COc1ccc(OC)c(NC(=O)N2CCOc3ccc(Cl)cc32)c1
    2.1, x
> Cc1ccc(C(=O)OCc2cc(=O)n3nc(C4CCCCC4)sc3n2)cc1
    -0.86, x

# (continued)
# Each structure is followed by: TAR Tat displ, CDC25B CDK2 inh
> CCCCCN(CCS(=O)(=O)N1CCNCC1)S(=O)(=O)c1ccc(F)cc1
    1.1, x
> O=c1c2cccnc2[nH]c(=S)n1CCN1CCCC1
    x, -3
> COc1ccc2c(c1)OC/C(=C/c1ccc(OC)c(OC)c1)C2=O
    0.62, x
> CCc1ccc(-c2n[nH]c(=O)c3c2CCCC3)cc1S(=O)(=O)N1CCc2ccccc2C1
    0.77, x
> Cc1ccc(S(=O)(=O)OC2C3CCCC2CN(C)C3)cc1 (configuration not stated)
    x, -1.7
> CCOC(=O)C1=C(C)Nc2nc(SC)nn2C1c1ccc(OCC)cc1 (configuration not stated)
    1.2, 3.3
> O=C(C1CCCN1S(=O)(=O)c1cccc2cccnc12)N1CCn2c1nc1ccccc12 (configuration not stated)
    x, -2.1
> CCNc1ncnc2c1c(-c1ccccc1)cn2-c1ccccc1
    0.01, -2.4
> O=c1c(Cl)c(N2CCOCC2)cnn1-c1c(Cl)cc(C(F)(F)F)cc1Cl
    x, -2.6
> O=c1c2ccccc2nc2n1CCCN2Cc1ccc(Br)cc1
    0.41, -0.11

# Continuation.
# Each structure is followed by: TAR Tat displ, CDC25B CDK2 inh
> Cc1sc2ncn(CC(=O)NCCN(C)C)c(=O)c2c1S(=O)(=O)N1CC(C)CC(C)C1 (configuration not stated)
    x, -1.2
> Cc1cc(C)cc(-n2c(SCC(=O)Nc3ccc4c(c3)OCCO4)nc3c(c2=O)SC(C)C3)c1 (configuration not stated)
    0.9, -3
> O=C(Cc1c(C(=O)O)[nH]c2ccc(Cl)cc12)NC1CCCCC1
    x, 0.49
> O=C(Nc1ccccc1C(=O)NCC1COCCO1)C1=CSCCO1 (configuration not stated)
    1, x
> CC1CCCCC1NC(=O)c1nn(C)c2c1CS(=O)(=O)c1ccccc1-2 (configuration not stated)
    1.6, 0.92
> Cn1c(=O)c2c(SCC(=O)Nc3ccc4c(c3)OCO4)nc(CC(C)(C)C)nc2n(C)c1=O
    0.16, x
> O=c1[nH]cnc2nc[nH]c12
    1.7, x
> Cc1cc(C)c2c(=O)cc(CN(Cc3ccccc3)Cc3ccco3)[nH]c2c1
    0.06, x
> O=C1C2CCCCC2C(=O)N1CCC(=O)N1c2ccccc2Sc2ccccc21 (configuration not stated)
    x, -2.7
> CCCc1cc(=O)n2nc(N(C)CC(=O)N3CCOCC3)sc2n1
    0.81, -0.25

# The list goes on.
# Each structure is followed by: TAR Tat displ, CDC25B CDK2 inh
> CC1CCCCN1CCNC(=O)Cn1ncc2c3ccccc3n(C)c2c1=O (configuration not stated)
    -0.66, -1.7
> Cc1[nH]c(=S)c(C#N)c(C)c1N=Nc1ccccc1
    x, -1.3
> O=C(Cn1c(=O)oc2ccccc21)Nc1nnc(SCC(=O)c2ccccc2)s1
    0.52, -0.46
> COC(=O)c1c(C)oc2ccc(NS(=O)(=O)c3ccc4c5c(cccc35)C(=O)N4)cc12
    2.4, -1.4
> CC1C(=O)N2CCCc3cc(S(=O)(=O)NCc4ccc(Cl)cc4)cc1c32 (configuration not stated)
    1.5, x
> Cc1ccn2c(NC3CCCCC3)c(-c3ccc(C)o3)nc2c1
    x, -0.16
> CCc1cc(C)cc(OCC(O)Cn2c[n+](C)c3ccccc32)c1 (configuration not stated)
    1, -1.1
> Cc1ccc(NS(=O)(=O)c2cc(-c3nc(C)no3)ccc2C)c(Cl)c1
    0.5, x
> Cc1nn(CC(=O)N2CCN(C)CC2)c(=O)c2cc3occc3n12
    1.4, -0.89
> CN(C)CCCn1c(=O)n(C)c(=O)c2[nH]cnc21
    -0.51, -1.3
> COc1cccc(C2c3c(oc4ccc(C)cc4c3=O)C(=O)N2Cc2ccc3c(c2)OCO3)c1 (configuration not stated)
    1.2, -0.2
> Cc1ccc(S(=O)(=O)Nc2cccc(-c3ccc(N4CCC(C)CC4)nn3)c2)s1
    1, x
> CCCNc1nc(Nc2ccc(Cl)cc2C)c2cnn(C)c2n1
    0.27, x
